# Source: PubChem
# A1 apoptosis 2 – blocks A1, raising caspase activity. MEF A1-2A-BIM cells, caspase-Glo luminescence, 3 h; percent of clofoctol response, DMSO zero. 24,000 tested, under 10 active. caspase activation, % (concentration not given with the values). AID 2465; in the data active = caspase activation above about 5.9%;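 also: wells of about 30 µL received 50 nL stock; the first replicate is given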
#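 system = A1-2A-BIM-expressing MEF cells | quantity = 2500 MEF cells/well | dosing = 50 nL compound per well, pinned | schedule = overnight cell settling, then 3 h compound exposure, 37 °C | signal = luminescence from DEVD-luciferin Caspase-Glo reagent, 1:1 in 50 mM HEPES, 1 h RT | read-out = Caspase-3/7 activation, seen as rise in luminescence signal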
# * = called active by the depositor. The list is partial (hit frequency here may not be typical).
SMILES,A1 apoptosis 2
C[C@@H]1CN([C@@H](C)CO)C(=O)c2cc(NS(=O)(=O)c3ccc(Cl)cc3)ccc2O[C@@H](C)CCCCO[C@H]1CN(C)Cc1ccc(C(F)(F)F)cc1,-0.4
C[C@H](CO)N1C[C@H](C)[C@@H](CN(C)S(=O)(=O)c2ccc(Cl)cc2)Oc2c(NC(=O)NC3CCCCC3)cccc2C1=O,-0.9
C[C@H]1CN([C@@H](C)CO)C(=O)c2cccc(NC(=O)Nc3ccc4c(c3)OCO4)c2O[C@H]1CN(C)C(=O)Nc1ccc2c(c1)OCO2,-1.5
C[C@@H]1CN([C@H](C)CO)C(=O)Cc2cc(NS(=O)(=O)c3ccc(F)cc3)ccc2O[C@@H]1CN(C)C(=O)Nc1ccc(F)cc1,-1.1
C[C@@H]1CCCCO[C@H](CN(C)C(=O)Nc2ccc(C(F)(F)F)cc2)[C@@H](C)CN([C@H](C)CO)C(=O)c2cc(NC(=O)Nc3ccc(F)cc3)ccc2O1,0.3
C[C@@H]1CCCCO[C@@H](CN(C)S(=O)(=O)c2ccc(Cl)cc2)[C@@H](C)CN([C@H](C)CO)C(=O)c2cc(NC(=O)CCCN(C)C)ccc2O1,0.2
Cc1noc(C)c1NC(=O)Nc1ccc2c(c1)C(=O)N([C@@H](C)CO)C[C@H](C)[C@H](CN(C)C)O2,1.0
C[C@@H]1CN([C@H](C)CO)C(=O)Cc2cc(NS(=O)(=O)c3ccc(Cl)cc3)ccc2O[C@H]1CN(C)S(=O)(=O)c1ccccc1,-1.1
C[C@H]1CCCCO[C@@H](CN(C)C)[C@@H](C)CN([C@@H](C)CO)C(=O)c2cc(NC(=O)Nc3ccc(F)cc3)ccc2O1,-0.8
C[C@H](CO)N1C[C@H](C)[C@H](CN(C)S(=O)(=O)c2ccc(F)cc2)OCCCC[C@H](C)Oc2ccc(NC(=O)CCCCCC(=O)Nc3ccccc3N)cc2C1=O,-0.3
C[C@@H]1CN([C@H](C)CO)C(=O)Cc2cc(NC(=O)NC3CCCCC3)ccc2O[C@H]1CN(C)C(=O)Nc1ccc(F)cc1,1.0
C[C@@H]1CN([C@@H](C)CO)C(=O)c2cc(NS(=O)(=O)c3cccs3)ccc2O[C@@H]1CN(C)Cc1ccncc1,0.5
C[C@H]1CN([C@@H](C)CO)C(=O)c2cccc(NS(=O)(=O)c3cccs3)c2O[C@H]1CN(C)Cc1ccccc1,0.8
C[C@H](CO)N1C[C@H](C)[C@@H](CN(C)C(=O)Cc2ccccc2)OCCCC[C@H](C)Oc2ccc(NC(=O)c3ccccc3)cc2C1=O,0.2
C[C@@H]1CCCCO[C@@H](CN(C)C(=O)Nc2cccc3ccccc23)[C@@H](C)CN([C@H](C)CO)C(=O)c2cc(NC(=O)Nc3cccc4ccccc34)ccc2O1,0.1

# Retrieved one by one from the list above (seven):
SMILES,A1 apoptosis 2
C[C@H](CO)N1C[C@H](C)[C@@H](CN(C)C(=O)Cc2ccccc2)OCCCC[C@H](C)Oc2ccc(NC(=O)c3ccccc3)cc2C1=O,0.2
C[C@H]1CCCCO[C@@H](CN(C)C)[C@@H](C)CN([C@@H](C)CO)C(=O)c2cc(NC(=O)Nc3ccc(F)cc3)ccc2O1,-0.8
C[C@H]1CN([C@@H](C)CO)C(=O)c2cccc(NS(=O)(=O)c3cccs3)c2O[C@H]1CN(C)Cc1ccccc1,0.8
C[C@H](CO)N1C[C@H](C)[C@@H](CN(C)S(=O)(=O)c2ccc(Cl)cc2)Oc2c(NC(=O)NC3CCCCC3)cccc2C1=O,-0.9
C[C@@H]1CN([C@H](C)CO)C(=O)Cc2cc(NS(=O)(=O)c3ccc(F)cc3)ccc2O[C@@H]1CN(C)C(=O)Nc1ccc(F)cc1,-1.1
C[C@@H]1CCCCO[C@H](CN(C)C(=O)Nc2ccc(C(F)(F)F)cc2)[C@@H](C)CN([C@H](C)CO)C(=O)c2cc(NC(=O)Nc3ccc(F)cc3)ccc2O1,0.3
C[C@@H]1CN([C@@H](C)CO)C(=O)c2cc(NS(=O)(=O)c3ccc(Cl)cc3)ccc2O[C@@H](C)CCCCO[C@H]1CN(C)Cc1ccc(C(F)(F)F)cc1,-0.4
